PKD1 kinase inh = blocks activity of human protein kinase D1. Q15139. PKD1 kinase fluorescence polarization assay. inhibition, %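 (about 10 µM by stock and volumes)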. 200,000 compounds, 0.056% hits. AID 797;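 active means inhibition of 50% or more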;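 further: controls were vehicle for no effect and a reference inhibitor for full effect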
RGS16-Gao = modulates binding between human RGS16 and Galphao; O15492+P09471; bead-based flow cytometry RGS16-Galphao binding, fluorescence; actives lie on both sides; binding response (% of control), % at 10 µM; 220,000 compounds, 0.38% hits;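 active means below 25% or above 175%, edge rows of some plates excepted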;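 further: Galphao activated by GDP with aluminum fluoride before binding; 100% = wells without compound and 0% = beads without RGS; some results beyond the cut were filed as inactive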
Target sequence (O15492 whole entry, looked up): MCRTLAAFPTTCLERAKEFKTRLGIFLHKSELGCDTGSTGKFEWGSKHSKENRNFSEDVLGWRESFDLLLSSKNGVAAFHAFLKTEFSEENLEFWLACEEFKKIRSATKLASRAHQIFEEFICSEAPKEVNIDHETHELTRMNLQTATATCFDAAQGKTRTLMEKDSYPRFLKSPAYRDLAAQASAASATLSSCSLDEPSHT
Target sequence (P09471 whole entry, looked up): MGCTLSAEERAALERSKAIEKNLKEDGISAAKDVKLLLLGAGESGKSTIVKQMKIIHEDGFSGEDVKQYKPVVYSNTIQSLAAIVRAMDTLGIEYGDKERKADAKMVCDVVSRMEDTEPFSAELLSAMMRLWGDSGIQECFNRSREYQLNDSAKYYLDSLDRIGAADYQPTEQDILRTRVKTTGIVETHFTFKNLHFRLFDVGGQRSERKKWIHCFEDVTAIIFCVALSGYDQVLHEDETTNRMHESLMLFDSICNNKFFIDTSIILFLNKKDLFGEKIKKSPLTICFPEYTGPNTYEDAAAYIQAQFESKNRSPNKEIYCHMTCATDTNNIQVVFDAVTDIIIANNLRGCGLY
GALR2 ag = GALR2 (human) receptor agonism; GALR2-expressing cells, agonist activation read-out; activation, %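 (tested at 5 µM)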; 140,000 compounds, 0.48% hits;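 active means above mean plus 3 SD of all compounds, about 5% in these data, not always enough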;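 further: 0% = vehicle buffer wells and 100% = reference agonist at full effect; tested in CHO reporter cells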
Target sequence (O43603 whole entry, looked up): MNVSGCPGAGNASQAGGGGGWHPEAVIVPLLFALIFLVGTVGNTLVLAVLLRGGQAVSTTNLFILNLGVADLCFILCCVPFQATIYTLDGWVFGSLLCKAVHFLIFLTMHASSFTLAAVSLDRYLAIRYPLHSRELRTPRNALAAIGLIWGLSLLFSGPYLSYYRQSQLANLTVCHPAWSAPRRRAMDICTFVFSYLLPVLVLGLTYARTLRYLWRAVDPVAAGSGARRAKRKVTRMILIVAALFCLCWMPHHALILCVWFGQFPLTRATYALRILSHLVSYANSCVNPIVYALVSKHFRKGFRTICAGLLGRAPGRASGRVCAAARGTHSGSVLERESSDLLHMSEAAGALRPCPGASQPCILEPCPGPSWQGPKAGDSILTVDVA
HSV replic up = increases HSV replication in cells. HSV replication augmentation in cells, fold increase. maximum fold increase. 220,000 compounds, 0.005% hits;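 active means peak rise of 1.5-fold or more in the series; tested in PC3 cells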;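 further: first round at 10 µM; read as green reporter fluorescence; hits show the peak of a series up to 25 µM; 1 = signal of infected wells without compound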
INS promoter inh = TRM-6 insulin promoter activity inhibition | TRM-6 cells (human fetal islet line), insulin promoter-eGFP reporter, imaging; reporter expression induced with tamoxifen | inhibition, % at 2 µM | 130,000 compounds, 0.9% hits;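 active means inhibition above the mean plus 3 SD, with well images judged a real hit on visual review, cut at about 60% in these data, passing the limit was not always enough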
INS promoter inh cell count = recorded beside INS promoter inh, whose call it bears; normalized cell count, %; measured here: cell count, toxicity; reference of the scale not given here;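 cells exposed to compound for 48 h; stained nuclei by imaging scaled within each plate; lower means fewer cells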
HSV replic up primary fold = further read-out of HSV replic up, marked with its call; fold increase; compound at 10 µM; measured here: primary screen fold increase 10 uM; tested in PC3 cells;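 GFP signal in the first replicate; 1 = infected wells without compound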
* hit, by the source's call; i = inactive; x = not tested or not shown.

nr | SMILES | PKD1 kinase inh | RGS16-Gao | GALR2 ag | HSV replic up | HSV replic up primary fold | INS promoter inh | INS promoter inh cell count
1 | CC(=O)Nc1ccc(S(=O)(=O)NNC(=O)c2cccc(Br)c2)cc1 | 5 | 96 | x | i | 1 | x | x
2 | O=C(COc1ccc(Cl)cc1Cl)N1CCCN(C(=O)COc2ccc(Cl)cc2Cl)CC1 | 0 | 107 | -1.0 | i | 1 | -56 | 137
3 | Cc1[nH]c2ccccc2c1C(=O)CN1CCC(C)CC1 | -5 | 104 | -0.1 | i | 0.79 | -12 | 155
4 | CCOc1ccc(/C(C)=N/NC(=O)Cn2nc([N+](=O)[O-])cc2C)cc1 | x | 103 | x | i | 0.91 | x | x
5 | O=C(Cn1c2[n+](c3ccc(C(F)(F)F)cc31)CCCCC2)c1ccc2c(c1)OCCO2 | -4 | 93 | x | i | 1 | x | x
6 | Cc1oc(-c2ccccc2Cl)nc1CSCC(=O)O | -4 | 92 | -6.0 | i | 1.1 | x | x
7 | O=C(COC(=O)C1CC1)Nc1ccc(N=Nc2ccccc2)cc1 | 3 | 52 | -1.9 | i | 0.92 | 21 | 83
8 | N#CCCN1CCN(S(=O)(=O)c2ccc3c(c2)OCCCO3)CC1 | 1 | 104 | -0.2 | i | 1.1 | -21 | 137
9 | Nc1ccc(-c2cnc[nH]2)cc1[N+](=O)[O-] | x | 97 | x | i | 1.1 | x | x
10 | COc1ccc(N(CC(=O)NC2CCCCC2)C(=O)CNC(=O)c2ccco2)cc1 | 13 | 109 | x | i | 1 | x | x
11 | Cc1cc(S(=O)(=O)NCCN2CCOCC2)c(C)s1 | -7 | 97 | -1.5 | i | 0.97 | x | x
12 | CCOC(=O)C1CCN(C(=O)Cn2cc3c(n2)CCC(C)C3)CC1 (centres undefined) | 2 | 111 | -0.6 | i | 1.1 | x | x
13 | Cc1cc(-c2ccc(N3C(=O)CCC3=O)c(C)c2)ccc1N1C(=O)CCC1=O | 7 | 78 | -0.4 | i | 1.1 | -7 | 33
14 | O/N=C(/CN(O)/C=C1/C=CC=N1)c1cccs1 | -3 | 101 | -1.6 | i | 0.91 | -26 | 145
15 | COc1ccccc1NC(=O)CN1CCN(CC(=O)Nc2ccc(OCc3ccccc3)cc2)CC1 | -1 | 99 | -3.0 | i | 0.93 | -7 | 152
16 | Cn1c(N)c(C(=O)CSc2ccc3c(c2)OCCO3)c(=O)n(C)c1=O | -8 | 101 | -1.7 | i | 0.93 | 31 | 117
17 | COc1ccc(/C=C/C(=O)NC(=S)Nc2cc3oc4ccccc4c3cc2OC)cc1 | -2 | 110 | 0.3 | i | 0.91 | 19 | 139
18 | CCN(CC)S(=O)(=O)c1ccc(NS(=O)(=O)c2ccc(C)c(C)c2)cc1 | 4 | 87 | 0.0 | i | 0.82 | x | x
19 | CC(C)Cc1ccc(-c2cc(=O)[nH][nH]2)cc1 | -6 | 101 | x | i | 0.86 | x | x
20 | CC(=O)c1ccc2c(c1)OCCOCCOc1ccccc1OCCOCCO2 | x | 82 | x | i | 0.96 | x | x
21 | CCN(Cc1ccccc1)S(=O)(=O)c1ccc(C(=O)Nc2nnc(-c3ccccc3OC)o2)cc1 | 6 | 107 | -1.0 | x | x | x | x
22 | COc1ccc(CCNC(=O)c2ccc(NS(=O)(=O)c3c(C)noc3C)cc2)cc1OC | 7 | 96 | -1.7 | i | 0.99 | x | x
23 | COCc1cc(C)n(CC(=O)NC(C)c2ccccc2)c(=O)c1C#N (centres undefined) | 3 | 100 | -3.1 | i | 0.94 | 39 | 91
24 | O=C(NCC(=O)N(Cc1ccccc1)C(C(=O)NC1CCCC1)c1ccco1)c1ccco1 (centres undefined) | -4 | 104 | -1.9 | i | 1.1 | x | x
25 | COc1ccc(Cn2nnnc2CN2CCC(O)(c3ccc(F)cc3)CC2)cc1 | -8 | 97 | x | i | 0.99 | -7 | 84
26 | C(=N\N1CCN(Cc2ccccc2)CC1)/c1cccs1 | 1 | 102 | -2.7 | i | 0.93 | 29 | 128
27 | C#CC[N+](C)(C)CC#Cc1ccccc1 | 4 | 57 | x | i | 0.88 | x | x
28 | CCc1sc(-c2c(C#N)c(N)nc3c2CCCCCC3)cc1[N+](=O)[O-] | 17 | 94 | 2.7 | i | 0.86 | -17 | 95
29 | O=C(O)CSc1nc(-c2ccccc2)c(-c2ccccc2)[nH]1 | x | 102 | x | i | 1 | x | x
30 | Cc1cc(C)n2nc(C(=O)OCC(=O)N(CC(C)C)CC(C)C)nc2n1 | -2 | 102 | x | i | 1.1 | 42 | 85
31 | CCOC(=O)c1nnn(-c2nonc2N)c1CN(C)C1CCCCC1 | -11 | 150 | -1.4 | i | 0.93 | -5 | 116
32 | CC1=CC(C)C2C(=O)N(c3ccccc3)C(=O)C2C1 (centres undefined) | 1 | 106 | -0.6 | i | 0.89 | -32 | 100
33 | CCOC(=O)C(C(=O)Nc1ccccn1)C1CCCCC1 (centres undefined) | -5 | 107 | -0.6 | i | 0.98 | -55 | 95
34 | CCCCN1CCc2[nH]c(=S)[nH]c(=O)c2C1 | 2 | 103 | 0.0 | i | 1.2 | x | x
35 | Cc1cc(=O)oc2cc(OCC(=O)Nc3nnc(CC(C)C)s3)ccc12 | 7 | 98 | -2.8 | i | 0.96 | 5 | 138
36 | CCC(CC)C(=O)Nc1cc(C)cc(C)c1 | 3 | 110 | 0.2 | i | 1 | 9 | 73
37 | CCCn1nc(C(=O)Nc2cccc(C(=O)OC)c2)c2ccccc2c1=O | 0 | 102 | -3.4 | i | 0.72 | x | x
38 | Cc1ccc(-c2nnn(CC(=O)N(CCO)C(C(=O)NC3CCCCC3)c3ccncc3)n2)o1 (centres undefined) | -7 | 98 | x | i | 0.97 | x | x
39 | CC(=O)NC(Cc1ccccc1F)C(=O)NC1CCN(C(=O)c2cnccn2)CC1 (centres undefined) | 0 | 101 | -0.1 | i | 0.95 | x | x
40 | CC12CCC(c3n[nH]c(=S)nc31)C2(C)C (centres undefined) | -6 | 55 | -1.7 | i | 0.96 | -39 | 92

A different layout for part of the listing above.
Screens in order: PKD1 kinase inh	RGS16-Gao	GALR2 ag	HSV replic up	HSV replic up primary fold	INS promoter inh	INS promoter inh cell count
28. CCc1sc(-c2c(C#N)c(N)nc3c2CCCCCC3)cc1[N+](=O)[O-]
  17	94	2.7	i	0.86	-17	95
29. O=C(O)CSc1nc(-c2ccccc2)c(-c2ccccc2)[nH]1
  x	102	x	i	1	x	x

The results go on.
nr | SMILES | PKD1 kinase inh | RGS16-Gao | GALR2 ag | HSV replic up | HSV replic up primary fold | INS promoter inh | INS promoter inh cell count
41 | Cc1sc(NC(=O)c2ccccc2)c(C#N)c1-c1ccccc1 | -9 | 137 | 0.3 | i | 1.1 | -15 | 65
42 | CS(=O)(=O)N1CCN(c2cnn(-c3ccccc3)c(=O)c2Cl)CC1 | -4 | 109 | x | i | 1.1 | x | x
43 | O=C(O)CCCn1nc(C(F)(F)F)c2c1CCCCC2 | 6 | 101 | -3.4 | i | 0.93 | 21 | 112
44 | O=C1C2C3C=CC(C3)C2C(=O)N1c1ccc(S(=O)(=O)Nc2nccs2)cc1 (centres undefined) | x | 93 | x | i | 1.1 | x | x
45 | Cc1ccc(N(C)C(=O)C2CCCN2S(=O)(=O)c2ccc3c(c2)n(C)c(=O)c(=O)n3C)cc1 (centres undefined) | x | 93 | x | i | 0.9 | x | x
46 | O=C(Nc1cnn(Cc2c(Cl)cccc2Cl)c1)C(c1ccccc1)c1ccccc1 | 1 | 105 | -1.0 | i | 0.83 | 53 | 146
47 | CCOc1cc(/C=N/NC(=O)c2cccs2)ccc1OC(=O)N1CCOCC1 | 2 | 108 | -0.7 | i | 0.79 | -58 | 148
48 | Cc1c(Cl)c(C(F)(F)F)nn1CC(=O)NN | -3 | 98 | x | i | 0.89 | -36 | 152
49 | COc1ccc(N(C(=O)/C=C/c2ccccc2)C2=CC3CCC(C2)N3C)cc1 (centres undefined) | x | 100 | x | i | 0.93 | x | x
50 | CC1(C)CC(=O)c2c(nn(-c3ccccc3)c2N)C1 | -7 | 100 | -0.5 | i | 0.94 | -18 | 75
51 | COCCn1c(CN2CCN(c3ccc(F)cc3)CC2)nc2c1c(=O)n(C)c(=O)n2C | 4 | 96 | x | i | 0.71 | x | x
52 | COc1ccc(N=Cc2nc(-c3ccccc3)oc2OC(C)=O)cc1 | x | 100 | x | i | 0.93 | x | x
53 | c1ccc2c(c1)N1CCN=C1N2CCN1CCCCC1 | -11 | 98 | -1.3 | i | 0.93 | 6 | 77
54 | CSc1cccc(NC(=S)N(CCCN2CCCC2)Cc2cccn2Cc2ccc(Cl)cc2)c1 | -1 | 100 | x | i | 0.7 | -100 | 81
55 | Oc1ccc(CNc2ccccc2)c2cccnc12 | -4 | 107 | -1.9 | i | 0.76 | x | x
56 | CCCCC(=O)Nc1ccc2c(c1)nc(CCN1CCOCC1)n2C | -1 | 98 | -3.0 | i | 0.8 | 9 | 104
57 | COC(=O)c1ccc(-n2cnc(Cl)n2)c(F)c1 | 1 | 116 | 0.3 | i | 0.91 | 4 | 103
58 | O=C(c1ccco1)N1N=C(c2cccs2)CC1c1ccc(F)cc1 (centres undefined) | -1 | 119 | 3.6 | i | 0.78 | -28 | 109
59 | CSCCOC(=O)C1=C(C)NC(=O)CC1c1ccccc1Cl (centres undefined) | 3 | 100 | -1.9 | i | 1.2 | 15 | 122
60 | Cc1nc2cc3c(cc2s1)OCO3 | x | 89 | x | i | 1.1 | x | x
61 | COc1cccc(-n2c(SCC(=O)Nc3nccs3)nnc2-c2ccoc2C)c1 | -5 | 109 | -2.0 | i | 0.85 | -13 | 137
62 | CS(=O)(=O)N1CCN(C/C=C/c2ccccc2)CC1 | 0 | 104 | -3.2 | i | 0.81 | -77 | 17
63 | COc1cccc(/C=N/NC(=O)CCc2c(C)n[nH]c2C)c1O | x | 95 | x | i | 0.99 | x | x

Structures from the list above that have fluorine:
nr | SMILES | PKD1 kinase inh | RGS16-Gao | GALR2 ag | HSV replic up | HSV replic up primary fold | INS promoter inh | INS promoter inh cell count
5 | O=C(Cn1c2[n+](c3ccc(C(F)(F)F)cc31)CCCCC2)c1ccc2c(c1)OCCO2 | -4 | 93 | x | i | 1 | x | x
25 | COc1ccc(Cn2nnnc2CN2CCC(O)(c3ccc(F)cc3)CC2)cc1 | -8 | 97 | x | i | 0.99 | -7 | 84
39 | CC(=O)NC(Cc1ccccc1F)C(=O)NC1CCN(C(=O)c2cnccn2)CC1 (centres undefined) | 0 | 101 | -0.1 | i | 0.95 | x | x
43 | O=C(O)CCCn1nc(C(F)(F)F)c2c1CCCCC2 | 6 | 101 | -3.4 | i | 0.93 | 21 | 112
48 | Cc1c(Cl)c(C(F)(F)F)nn1CC(=O)NN | -3 | 98 | x | i | 0.89 | -36 | 152
51 | COCCn1c(CN2CCN(c3ccc(F)cc3)CC2)nc2c1c(=O)n(C)c(=O)n2C | 4 | 96 | x | i | 0.71 | x | x
57 | COC(=O)c1ccc(-n2cnc(Cl)n2)c(F)c1 | 1 | 116 | 0.3 | i | 0.91 | 4 | 103
58 | O=C(c1ccco1)N1N=C(c2cccs2)CC1c1ccc(F)cc1 (centres undefined) | -1 | 119 | 3.6 | i | 0.78 | -28 | 109
